# Screening data from PubChem BioAssay.
# Bfl-1 A1 inh: caspase 3/7 activation in MEF A1-2A-BIM cells, primary screen, A1 inhibitor project, cell-based, luminescence, HTS; caspase activation, % (no concentration beside the values); Caspase-Glo 3/7 luminescence, 3 h; percent of clofoctol response, vehicle zero; AID 2462, 2010; 0.066% of 330,000 active;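 active means over half of replicate activation scores above 10%, or exactly half above 10 with the replicate mean above 10; inconclusive means replicate mean below 10 yet half the replicates above 10; inactive means over half of replicates below 10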;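 further: wells of about 30 µL received 50 nL stock; many hits fall short of the cut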
# Ecoli rRNA inh: reduced GFP signal of wild-type E. coli, primary screen, bacterial rRNA inhibitor project, GFP/RFP fluorescence, OD600, single point; E. coli WT GFP vs humanized-ribosome RFP mutants, 24 h; stronger effect = lower value; DMSO median 0, no signal -100; GFP signal change (wild-type ribosome), % (no concentration beside the values); 1.6% of 350,000 active; AID 720706, 2013;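 active means significant combined selectivity score with lowered wild-type GFP, culture density cut under 30%, mutant RFP and density less affected; inactive means any of these conditions unmet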; further: one replicate is shown; some compounds called inactive have numbers as strong as hits
# Beta2AR agonist: beta2AR agonists driving receptor internalization, primary screen, cell-based, FAP fluorogen, flow cytometry; Beta-2 adrenergic receptor (Homo sapiens), P07550; Am2.2-beta2AR cells; reference of the scale not given here; response, % (concentration not given with the values); 0.43% of 340,000 active; AID 504454, 2011;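 active means response above a set limit, near 3 SD of response in nonfluorescent compounds, cut at about 42% in these data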;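 further: stock transfer was 100 nL into about 11 µL; a reference agonist was the positive control; negative values mostly stem from fluorescent compounds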
# Target sequence (P07550 whole entry, looked up): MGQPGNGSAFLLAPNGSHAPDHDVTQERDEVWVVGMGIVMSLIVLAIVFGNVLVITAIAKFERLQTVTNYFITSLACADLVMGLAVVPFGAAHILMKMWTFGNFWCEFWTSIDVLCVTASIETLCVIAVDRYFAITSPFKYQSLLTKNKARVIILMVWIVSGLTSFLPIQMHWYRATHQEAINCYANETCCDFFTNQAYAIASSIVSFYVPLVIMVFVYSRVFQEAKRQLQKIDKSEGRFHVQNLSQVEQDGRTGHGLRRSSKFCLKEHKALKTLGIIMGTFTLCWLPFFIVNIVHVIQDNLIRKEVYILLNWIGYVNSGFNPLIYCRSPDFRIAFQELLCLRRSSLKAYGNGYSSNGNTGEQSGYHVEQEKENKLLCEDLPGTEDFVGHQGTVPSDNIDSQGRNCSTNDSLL
# Calb FLC: C. albicans growth inhibition with fluconazole, primary screen, CaCi-2 strain, Alamar Blue fluorescence. AID 1979, 2009. 0.57% of 300,000 active. growth inhibition, % (no concentration beside the values). C. albicans CaCi-2 (fluconazole-resistant clinical isolate) + fluconazole, 48 h;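 active means most replicates above 75%; inconclusive means exactly half above 75%; inactive means most below 75%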;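 further: all wells also contain fluconazole at 8 µg/ml as a sub-toxic cotreatment; 0% = median of DMSO wells and 100% = median of geldanamycin control wells; wells of about 8 µL received 7.5 nL stock; the first replicate is given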
# LANA-H2B inh: blockers of LANA interaction with H2A/H2B – biochemical, FP readout, HTS, primary screen; 0.6% of 320,000 active; cell-free LANA-H2A/H2B peptide, fluorescence polarization; AID 2629, 2010; inhibition, % (no concentration beside the values); in the data active means inhibition mostly above about 10%, no sharp cut-off; inactive means mostly below about 6.7%;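 further: stock transfer was 7.5 nL into about 10 µL; 0% = median of vehicle wells and 100% = median of positive control wells; one replicate is shown; the record names a cut of 25% in any replicate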
# ALR inh: inhibitors of human ALR sulfhydryl oxidase, primary screen, biochemical, H2O2 detection, HRP-luminol luminescence, single point | FAD-linked sulfhydryl oxidase ALR (Homo sapiens), P55789 | purified ALR, DTT oxidation | inhibition, % (test concentration not listed) | 3.8% of 290,000 active | AID 485317, 2010;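 active means mean and each replicate at 75% or more; inconclusive means only one of the two met; inactive means neither met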;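 further: stock transfer was 7.5 nL into about 7.5 µL; 0% = neutral wells and 100% = wells with inactivated enzyme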
# Target sequence (P55789 whole entry, looked up): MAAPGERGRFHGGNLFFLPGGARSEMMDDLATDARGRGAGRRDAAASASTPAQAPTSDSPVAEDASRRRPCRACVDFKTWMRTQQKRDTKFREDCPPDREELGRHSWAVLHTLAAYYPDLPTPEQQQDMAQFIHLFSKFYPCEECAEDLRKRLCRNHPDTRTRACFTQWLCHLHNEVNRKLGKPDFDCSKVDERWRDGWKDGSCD
# Beta cell apopt: inhibitors of cytokine-induced beta cell apoptosis, primary screen, luminescence. INS-1E cytokine-induced death, ATP luminescence, 48 h; percent of positive-control rescue, neutral wells zero. AID 435005, 2010. 0.8% of 300,000 active. protection from apoptosis, % (test concentration not listed);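 active means all replicates at 75% or more, or half of them and the mean; inconclusive means half reach 75% but not the mean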;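 further: 0% = cytokine-treated negative control wells and 100% = positive control rescue; higher means more ATP so stronger rescue from cytokine killing; wells of about 40 µL received 100 nL stock; the first replicate is given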
# T cruzi inh: inhibitors of intracellular T. cruzi growth, primary screen, luminescence, NIH3T3 host cells; T. cruzi beta-gal in NIH3T3, 90 h; inhibition, % (no concentration beside the values); 1.4% of 300,000 active;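 active means mean inhibition across valid replicates above about 55%, limit read from the data; inconclusive means mean below that limit but half or more replicates reach it; inactive means mean below it, under half of replicates reach it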;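 further: signal also drops with host cell toxicity which is not excluded here; 0% = plate median of DMSO wells and 100% = zero luminescence signal; higher percent means less beta-gal luminescence so fewer parasites; stock transfer was 50 nL into about 50 µL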
# Ecoli rRNA inh OD600: also measured in Ecoli rRNA inh; calls as there; OD600 change, %; measured here: OD600 growth;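 optical density of the mix in the first replicate; 0 = DMSO median and -100 = no signal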
# Ecoli rRNA inh RFP: recorded beside Ecoli rRNA inh, whose call it bears; RFP signal change, %; measured here: RFP humanized mutant strains;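 first replicate; 0 = DMSO median and -100 = no signal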
# Numbers without * were called inactive; ? = inconclusive; . = not tested or not shown.
SMILES,Bfl-1 A1 inh,Ecoli rRNA inh,Ecoli rRNA inh OD600,Ecoli rRNA inh RFP,Beta2AR agonist,Calb FLC,LANA-H2B inh,ALR inh,Beta cell apopt,T cruzi inh
O=C(Nc1cccc(S(=O)(=O)N2CCCCC2)c1)C1CCN(C(=O)c2ccc(Cl)cc2)CC1,0.8,-33,-31,-2.9,-2,.,-0.5,-21,1,.
CC(C)(NC(=O)NC(CO)c1ccccc1)c1cccc(C(C)(C)NC(=O)NC(CO)c2ccccc2)c1 (configuration not stated),1.0,-4,4,0.5,-8,-7,0.1,-4,-17,-34
Cc1sc2ncnc(NCC(c3ccco3)N(C)C)c2c1C (configuration not stated),0.7,.,.,.,-4,0,1.2,4,-1,9
CCOCC(=O)Nc1cc([N+](=O)[O-])ccc1OC,0.8,8,4,0.4,-5,4,22*,9,-2,-21
Cc1ncc([N+](=O)[O-])n1CCOC(=O)Nc1ccc(Cl)c(Cl)c1,-0.4,.,.,.,5,-19,-1.5,-3,-1,2
CC(=O)NNC(=S)NC(=O)c1ccccc1,-0.4,-16,-22,-3.1,4,-12,-0.7,.,-3,3
COc1ccc(Cn2nnc3c(=O)[nH]c(C4CCN(S(=O)(=O)c5ccc(C)cc5)CC4)nc32)cc1,-0.6,-5,-10,12,1,3,4.7,-1,6,13
O=C(COC(=O)COc1cccc(Br)c1)Nc1c(Cl)cccc1Cl,-0.5,3,16,0.4,0,-2,2.5,-2,-4,-35
Cc1noc(C)c1CSCC(=O)NC1=NCCS1,0.1,.,.,.,-1,10,0.0,97*,2,-18
Cc1ccc(N2C(=O)c3ccccc3C2=O)cc1Cl,-2.8,.,.,.,6,3,8.8,-6,12,-14
CN=C(Nc1cc(C)nn1-c1ccccc1)c1ccccc1F,-1.3,4,-2,-7.2,0,25,1.2,0,-2,-7
N#Cc1cccc(NC(=O)Cn2cnc(S(=O)(=O)N3CCc4ccccc43)c2)c1,0.2,.,.,.,2,2,-3.3,12,-9,-1
COc1cc(CNc2ccccc2SC)ccc1O,0.7,.,.,.,-10,14,8.6,52,-3,-5
O=C(c1c(F)cccc1F)N1CCC(O)(c2cccnc2)CC1,0.8,.,.,.,-4,-10,-2.3,-1,-5,-5
Cc1ccc(S(=O)(=O)NNC(=O)Nc2ccc(C)c(C)c2)c(C)c1,1.1,-12,-36,-2.6,-1,-2,2.9,52,-4,-5
O=c1c2c3c(sc2nc(N2CCNCC2)n1CCc1ccccc1)CCCCC3,0.2,.,.,.,17,-12,-4.3,.,-2,17
CN(CC(=O)Nc1cccc(F)c1)CC(=O)N(C)c1c(N)n(Cc2ccccc2)c(=O)[nH]c1=O,0.9,7,7,-2.0,0,.,1.7,-12,0,.
COc1ccccc1N=C1SC(C)CN1C(=O)C1CCC1 (configuration not stated),0.6,.,.,.,.,-15,4.7,4,-6,-7
CC(NC(=O)c1cnc2n(c1=O)CCS2)c1ccccc1 (configuration not stated),0.7,.,.,.,-1,2,-2.9,-10,1,5
Cc1cc(N2CCCCC2)ccc1[N+](=O)[O-],-0.6,-43*,-32*,-6.7*,-1,-4,-1.4,.,-5,-18
COCC(C)n1c(SCC(=O)NNC(=O)c2ccccc2)nc2ccccc2c1=O (configuration not stated),0.1,.,.,.,15,-21,-3.6,-1,-2,-11
O=C(Nc1ccc(F)cc1F)c1cc(-c2ccco2)on1,-1.2,.,.,.,2,-16,-1.6,6,-5,-8
CC(=O)c1cccc(S(=O)(=O)N2CCC(C(=O)O)(c3ccccc3)CC2)c1,-0.5,-1,1,-3.4,-5,1,11,.,-1,3
Cc1cc(C(F)(F)F)nc(SCCN2CCCCC2)c1C#N,-0.7,2,9,-6.7,5,-5,2.3,.,-3,26
Nc1nc(-c2cccnc2)nn1C(=O)c1ccccc1Cl,.,12,9,0.0,6,-6,.,.,.,1
# Remaining list, next part
SMILES,Bfl-1 A1 inh,Ecoli rRNA inh,Ecoli rRNA inh OD600,Ecoli rRNA inh RFP,Beta2AR agonist,Calb FLC,LANA-H2B inh,ALR inh,Beta cell apopt,T cruzi inh
COc1cc(/C=N/NC(=O)COc2c(C)cc([N+](=O)[O-])cc2C)ccc1OC(=O)c1ccccc1,0.2,3,5,-3.8,27,-6,-0.8,-2,1,6
O=C(NCCN1CCOCC1)Nc1cccc(Cl)c1,-0.8,10,0,0.0,-3,11,2.4,.,-6,-15
CS(=O)(=O)c1ccc(Cl)c(NC(=O)CN2CCCC2c2ccc3c(c2)OCCCO3)c1 (configuration not stated),0.4,.,.,.,0,.,3.9,0,5,.
C[C@H]1COC(=O)[C@@H](CC(=O)OC(C)(C)C)C/C=C\C[C@@H](CC(=O)N[C@H](CO)Cc2ccccc2)C(=O)N1,-1.2,8,19,4.3,-1,.,-0.9,-4,4,.
COc1ccc(CCNC(=O)CSc2nnc3ccccn23)cc1,0.8,10,5,0.7,9,-2,-0.5,-29,0,-16
Cc1ccc(C(=O)COC(=O)CNC(=O)c2ccc(N3C(=O)c4ccccc4C3=O)cc2)cc1C,-0.4,13,14,-5.0,-4,?,-0.1,-20,-8,-44
Cc1sc(NC(=O)c2sc3nc4c(C)cccc4cc3c2N)c(C#N)c1C,.,.,.,.,-104,-5,0.3,40,9,4
CCC(C)Sc1ccc([C@H]2N[C@@](Cc3ccccc3)(C(=O)OC)[C@H]3C(=O)N(CC)C(=O)[C@@H]23)cc1OC (some centres not stated),0.3,10,2,-2.0,-4,-4,-1.5,-4,.,-8
O=C(CSc1ccsc1[N+](=O)[O-])Nc1cccc(F)c1,.,-59,-74,-20,-1,-1,.,.,.,-1
COc1ccc(C(=O)NC(=S)Nc2ccc(CN3CCOCC3)cc2)cc1Br,-0.7,-22*,-10*,3.2*,5,0,4.6,15,10,21
O=C(Cn1cc(C(F)(F)F)cc(Cl)c1=O)Nc1ccc(N2CCOCC2)cc1,0.0,15,19,0.8,1,-20,-4.0,-16,-3,-17
CN(Cc1c(C(=O)N/N=C/c2cc(F)ccc2F)nnn1-c1nonc1N)C1CCCCC1,0.0,16,20,2.2,7,.,-1.2,1,-2,-9
Cc1cc(O)c(/C=N/Nc2ccccc2Cl)c(=O)o1,-5.1,.,.,.,0,-26,-6.1,?,-1,-4
CC(=O)c1ccc(NC(=S)NNC(=O)c2ccccc2[N+](=O)[O-])cc1,1.3,-14,-9,-0.4,-1,-2,-5.3,93*,.,3
O=C(CN1C(=O)c2ccccc2S1(=O)=O)Nc1ncc([N+](=O)[O-])s1,.,5,4,-0.8,1,-13,.,.,.,-4
Cc1ccc(S(=O)(=O)c2cc3ccccc3nc2N)cc1,0.5,2,-33,-2.2,-5,-9,1.1,25,-3,17
COc1cc(-c2c(C#N)c(N)nc3c2CCCC3)ccc1O,-0.3,.,.,.,4,11,6.1,22,10,6
CN1C2CCC1CC(NC(=O)c1ccc([N+](=O)[O-])cc1)C2 (configuration not stated),-0.3,-7,-8,2.7,10,3,-5.1,-93,-1,8
COc1ccc(CNC(=O)COc2ccc(F)cc2)cc1,0.5,9,5,2.7,-2,29,-2.7,-5,0,4
Cc1noc(C)c1COC(=O)c1cc(=O)[nH]c2ccccc12,0.3,.,.,.,-4,.,-3.1,-9,-4,.
O=C(N/N=C/C(Cl)=C/c1ccccc1)c1ccccc1F,-0.8,-9,-14,-1.2,8,-7,1.5,-8,-5,5
CC(C)CNS(=O)(=O)c1cc(C(=O)OC2CCOC2=O)c(Cl)cc1Cl (configuration not stated),-1.7,5,3,-2.1,4,-8,-5.3,-9,.,-12
N#C/C(=C(/O)CCl)c1nc(-c2ccccc2)cs1,-0.7,-1,-1,2.4,-8,-6,0.0,.,-1,0
Cc1cc(CNC(=O)c2cc(-c3ccccc3)nc3ccccc23)nn1C,0.6,-24*,13*,-0.9*,3,-3,-0.4,13,-1,-3
S=C(Nc1ccccc1)Nc1nc2ccccc2n1CCOc1ccc(Br)cc1,1.0,.,.,.,2,9,3.0,-2,41,17
# Other entries follow.
SMILES,Bfl-1 A1 inh,Ecoli rRNA inh,Ecoli rRNA inh OD600,Ecoli rRNA inh RFP,Beta2AR agonist,Calb FLC,LANA-H2B inh,ALR inh,Beta cell apopt,T cruzi inh
CCOC(=O)c1ccccc1NC(=O)COC(=O)C1CCCC1,1.2,0,5,-0.9,-2,3,2.4,3,-5,4
CC1(NC(=O)CSc2nnc(-c3ccco3)n2Cc2ccccc2)CCS(=O)(=O)C1 (configuration not stated),-0.7,6,7,-1.4,-4,.,-3.7,4,5,.
C=CCn1c(O)c(CN2CCCCC2)c(C)c(C#N)c1=O,0.5,2,-2,4.7,3,-6,6.2,-8,-5,-6
Cc1ccc(NC(=S)N2CCC(N(C)CC3CCCO3)CC2)cc1 (configuration not stated),0.3,-3,6,0.6,1,-1,1.0,0,-3,2
CCn1cc(Cl)c(C(=O)N2N=C(c3ccc4ccccc4c3)CC2c2ccccc2O)n1 (configuration not stated),-0.3,-4,3,0.8,-12,2,-1.9,-7,-9,56*
CN(CCc1cn[nH]c1)C(=O)CC1C(=O)NCCN1Cc1cccc(Oc2ccccc2)c1 (configuration not stated),0.6,14,5,0.8,-10,-20,-5.2,-10,-3,12
O=C(Nc1cccc(C(=O)O)c1)/C(=C\c1ccccc1)NC(=O)c1cccc2ccccc12,-0.5,-40,-47,-8.4,1,-4,4.5,2,-7,-13
CCN1CCN(CCNC(=O)c2ccc3c(c2)N(Cc2ccc(F)cc2)C(=O)c2ccccc2S3=O)CC1 (configuration not stated),0.3,2,6,3.5,10,4,2.8,-5,-5,37
CC1CCc2c(sc(NC(=O)c3nc4ncccn4n3)c2C#N)C1 (configuration not stated),-1.4,2,6,3.2,-2,-2,-3.6,-5,5,-9
Cc1cc(NC(=O)CSc2nc3ccc(Cl)cc3[nH]2)no1,0.2,.,.,.,6,-10,-0.4,-1,0,7
Cc1cc(C(F)(F)F)n(-c2nc(C(=O)NN)cs2)n1,0.6,-5,3,5.7,-4,4,.,.,1,22
O=C(CN(c1ccc(F)cc1)S(=O)(=O)c1ccc2c(c1)OCCO2)NCC1CCCO1 (configuration not stated),0.1,.,.,.,6,-2,-15,-2,-2,-3
O=C(Nc1nnc(-c2ccncc2)o1)c1cccc(N2C(=O)CCC2=O)c1,0.2,6,8,-1.7,9,-4,-1.1,-16,3,-5
COC(=O)C1CN(C(=O)c2ccc(OC(F)F)cc2)c2ccccc2O1 (configuration not stated),1.9,-2,-7,-2.6,5,5,-0.1,-3,.,0
CCc1nnc2n1N=C(c1ccc([N+](=O)[O-])cc1)CS2,0.8,7,4,2.2,1,4,-2.9,97*,-2,7
COc1ccccc1OCC(=O)OCc1cc(-c2ccco2)on1,-0.4,3,7,2.1,0,.,8.4,-3,-2,.

# Only part of the results is shown; count on the stated rates, not on these rows.
